Assay outcomes: PubChem, ICCB-Longwood Screening Facility, Harvard Medical School
PV pol inh – inhibitors of poliovirus RNA polymerase binding and polymerization | P03300 | poliovirus polymerase elongation, fluorescence polarization; active compounds read low | % elongation, % (compound at 16.7 µg/mL) | actives 0.66% (n = 150,000) | AID 588519; in the data active = % elongation below about 90%; note: some results filed as inactive read as strong as hits
Target sequence (P03300 1749-2209 limits assumed): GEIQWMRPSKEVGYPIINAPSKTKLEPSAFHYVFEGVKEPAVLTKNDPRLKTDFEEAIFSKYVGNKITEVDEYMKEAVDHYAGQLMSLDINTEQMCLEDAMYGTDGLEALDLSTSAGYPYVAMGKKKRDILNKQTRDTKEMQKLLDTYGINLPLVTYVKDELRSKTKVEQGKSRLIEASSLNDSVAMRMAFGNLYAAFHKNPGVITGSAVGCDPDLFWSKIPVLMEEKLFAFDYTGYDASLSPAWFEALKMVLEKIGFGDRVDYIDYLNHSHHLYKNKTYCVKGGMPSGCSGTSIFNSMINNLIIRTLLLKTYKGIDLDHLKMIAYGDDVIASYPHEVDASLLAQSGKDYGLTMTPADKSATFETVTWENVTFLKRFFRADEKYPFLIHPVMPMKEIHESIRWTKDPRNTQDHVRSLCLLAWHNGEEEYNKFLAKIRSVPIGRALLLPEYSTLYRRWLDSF
MenB inh – inhibitors of Mycobacterium tuberculosis MenB enzyme; P9WNP5; MenB enzyme assay, absorbance read-out; some hits fall short of the stated cut; inhibition, %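 (about 12 µg/mL by stock and volumes)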; actives 0.43% (n = 100,000); AID 540299;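 active = mean of two replicates above 30%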;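 note: 0% = no compound and 100% = wells with inactive enzyme; the first replicate is given; strong numbers were not always called active; inactives centre near -10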
Target sequence (P9WNP5 whole entry, looked up): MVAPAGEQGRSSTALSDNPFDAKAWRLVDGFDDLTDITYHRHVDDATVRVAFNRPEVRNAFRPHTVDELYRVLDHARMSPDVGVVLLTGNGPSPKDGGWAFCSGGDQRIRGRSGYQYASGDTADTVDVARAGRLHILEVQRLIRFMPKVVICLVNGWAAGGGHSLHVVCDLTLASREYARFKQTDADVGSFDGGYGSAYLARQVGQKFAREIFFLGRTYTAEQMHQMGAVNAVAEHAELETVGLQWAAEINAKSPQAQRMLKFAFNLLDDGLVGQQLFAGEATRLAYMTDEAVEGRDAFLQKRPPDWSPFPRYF
MbtI inh – blocks the Mycobacterium tuberculosis siderophore enzyme MbtI | P9WFX0 | purified MbtI enzyme, fluorescence intensity read-out | inhibition, %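 (about 17 µg/mL by stock and volumes)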 | actives 0.89% (n = 100,000);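 active = above 50% in both replicates, above 80% if mildly self-fluorescent; inactive = the rest, strongly fluorescent compounds included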;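 note: 0% = mean of negative and 100% = mean of positive controls; one replicate is shown; some compounds called inactive have numbers as strong as hits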
PV pol inh intensity – also measured in PV pol inh; calls as there; % elongation; measured here: total intensity read-out; formula for this scale not given here;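 total fluorescence in place of polarization; lower means less elongation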
Starred values were filed as active, the others as inactive; . = no result given; & = joins results of further samples.

SMILES	PV pol inh	PV pol inh intensity	MenB inh	MbtI inh
N=C(N)SCCCc1nc2ccccc2[nH]1	102.0	103.0	1.7	9.8
CCOc1ccccc1NC(=S)NCC(C)CSc1ccc(C)cc1 (configuration not stated)	102.0	105.0	-53.9	0.6
CCN(C(=O)CSc1nnc(-c2ccco2)n1Cc1ccccc1)C1=CCCC1	105.0	108.0	-18.6	-8.0
COC(C)OC(=O)Cn1c(=O)sc2cccc(Cl)c21 (configuration not stated)	101.0	102.0	-28.5	.
CC(=O)NC(CC(=O)Nc1ccc(S(C)(=O)=O)cc1)c1ccccc1 (configuration not stated)	101.0	106.0	1.0	-21.8
Cc1cc2n(n1)CCCN2Cc1ccc(C(=O)NC2CCCCC2)cc1	100.0	104.0	1.0	-23.6
Cc1cc(=O)oc2cc3occ(-c4ccc(F)cc4)c3cc12	102.0	103.0	3.4	13.2
CCC1CCc2nc3sc(C(=O)NCCc4ccc(OC)cc4)c(N)c3cc2C1 (configuration not stated)	105.0	114.0	-5.1	.
O=C(Nc1ccc(Cl)cc1)Nc1nc(CC(=O)N2CCN(C(=O)c3ccco3)CC2)cs1	99.0	106.0	0.0	-0.5
CCN(CC(=O)Nc1ccc(OC)cc1)C(=O)c1ccc(C#N)cc1	101.0	107.0	-7.8	-2.4
COc1ccc(CCN(C)CCc2ccc(OC)c(OC)c2)cc1OC	104.0&100.0	102.0&102.0	-0.8	-15.4
CCc1ccc(-c2nnn(Cc3nn[nH]n3)n2)cc1	101.0	103.0	42.6*	-8.5
O=C(c1ccccc1)c1ccccc1C(=O)N1CCOCC1	105.0	98.0	-6.5	.
NN1CCN(Cc2cccc3ccccc23)CC1	104.0	106.0	-25.6	9.2
CCNc1cc(N(C)C)c2noc3c2c1C(=O)c1ccccc1-3	105.0	135.0	6.8	0.8
CNCc1nonc1C	101.0	102.0	10.4	-2.0
CCCNC(C(=O)Nc1cc(C)ccc1C)c1ccccc1 (configuration not stated)	100.0	103.0	-23.7	16.9
Cc1cc(C)c(C2=Nn3c(C)nnc3SC2C)cc1C (configuration not stated)	99.0	95.0	-18.0	17.8
CCS(=O)(=O)NCC1COC2(CCCCC2)O1 (configuration not stated)	101.0	104.0	-9.0	0.3
O=C(Cn1c(COc2ccccc2)nc2ccccc21)NCC1CCCO1 (configuration not stated)	101.0	105.0	.	-3.8
COc1ccc2[nH]c3c(=O)n(Cc4ccc(C(=O)NCc5cccnc5)cc4)c(=S)[nH]c3c2c1	99.0	104.0	-19.5	-3.9
COc1ccc(C(=O)NCC(=O)n2nc(C)cc2C)cc1	100.0	102.0	10.1	-6.0
Cc1ccc2c(c1)C1CN(C)CCC1N2C(=S)NC(=O)c1ccco1 (configuration not stated)	102.0	105.0	-22.2	15.2
O=C(Cc1cccc2ccccc12)Nc1ccc(S(=O)(=O)N2CCCC2)cc1	103.0	107.0	-11.4	.
O=C(COc1ccc2ccccc2c1)Nc1ccc(NC(=O)c2ccco2)cc1	99.0	102.0	29.6	12.8
O=C(N1CCOCC1)C12CC3CC(C1)CC(C(=O)N1CCOCC1)(C3)C2	104.0	106.0	0.9	-1.1
C1C2OC3CC4C1C1CC4C3C21 (configuration not stated)	101.0	105.0	-2.9	-10.4
O=C(NCc1ccco1)/C(=C/C=C\c1ccccc1)NC(=O)c1ccccc1	105.0	99.0	-9.3	.
O=C(Nc1cccnc1)c1cc(-c2ccccc2)on1	99.0	92.0	3.2	.
C[C@@H]1NC(=O)NC1=O	101.0	100.0	-2.7	-6.7

Exported with two lines to a compound: entries from further up.
Fields: PV pol inh	PV pol inh intensity	MenB inh	MbtI inh
O=C(COc1ccc2ccccc2c1)Nc1ccc(NC(=O)c2ccco2)cc1
  99.0	102.0	29.6	12.8
CCCNC(C(=O)Nc1cc(C)ccc1C)c1ccccc1 (configuration not stated)
  100.0	103.0	-23.7	16.9
CCOc1ccccc1NC(=S)NCC(C)CSc1ccc(C)cc1 (configuration not stated)
  102.0	105.0	-53.9	0.6
NN1CCN(Cc2cccc3ccccc23)CC1
  104.0	106.0	-25.6	9.2
CCN(CC(=O)Nc1ccc(OC)cc1)C(=O)c1ccc(C#N)cc1
  101.0	107.0	-7.8	-2.4
C[C@@H]1NC(=O)NC1=O
  101.0	100.0	-2.7	-6.7
O=C(c1ccccc1)c1ccccc1C(=O)N1CCOCC1
  105.0	98.0	-6.5	.

Some entries already given, reduced to PV pol inh, MbtI inh and PV pol inh intensity:
mol	PV pol inh	MbtI inh	PV pol inh intensity
CCCNC(C(=O)Nc1cc(C)ccc1C)c1ccccc1 (configuration not stated)	100.0	16.9	103.0
Cc1cc(C)c(C2=Nn3c(C)nnc3SC2C)cc1C (configuration not stated)	99.0	17.8	95.0
CCS(=O)(=O)NCC1COC2(CCCCC2)O1 (configuration not stated)	101.0	0.3	104.0
O=C(Cn1c(COc2ccccc2)nc2ccccc21)NCC1CCCO1 (configuration not stated)	101.0	-3.8	105.0
COc1ccc2[nH]c3c(=O)n(Cc4ccc(C(=O)NCc5cccnc5)cc4)c(=S)[nH]c3c2c1	99.0	-3.9	104.0
COc1ccc(C(=O)NCC(=O)n2nc(C)cc2C)cc1	100.0	-6.0	102.0
Cc1ccc2c(c1)C1CN(C)CCC1N2C(=S)NC(=O)c1ccco1 (configuration not stated)	102.0	15.2	105.0

Continued:
SMILES	PV pol inh	PV pol inh intensity	MenB inh	MbtI inh
O=C(NC(=O)N1CCOCC1)c1nnc(-c2ccccc2)o1	100.0	106.0	6.1	-7.7
COc1ccccc1OCc1nc(C#N)c(N(C)C)o1	104.0	103.0	-8.9	9.1
CC1=C/C(=N/OC(=O)c2ccccc2)C=CC1=O	102.0	103.0	-46.9	0.1
COc1ccc(-c2nc3cc(Cl)ccc3o2)cc1	105.0	110.0	-10.1	.
O=C(COc1ccc(Cl)cc1Cl)OCC(=O)c1ccc(F)cc1	102.0	96.0	.	-5.3
COc1ccc(/C=N/C(=S)NN)cc1	95.0	93.0	-17.3	30.0
NC1=NN=C(c2ccc3c(c2)OCCO3)CS1	98.0	100.0	15.1	16.5
Cn1c(=O)nc2n(-c3ccc(Cl)c(Cl)c3)c3ccccc3cc-2c1=O	101.0	103.0	-10.0	-6.8
O=C(CCCC(=O)N1CCN(c2ccccc2F)CC1)c1ccccc1	102.0	104.0	-26.2	-18.4
Cc1ccc(S(=O)(=O)Nc2ccc(C(=O)Nc3cc(C)on3)cc2)cc1	102.0	103.0	-17.4	-78.4
CN(C)c1nc(OCC(F)(F)F)nc(N(c2ccccc2)c2ccccc2)n1	103.0	100.0	-16.6	-1.0
CCN1C(=O)C(CC(=O)Nc2ccc(OC)cc2)N(CCCN2CCN(c3ccc(OC)cc3)CC2)C1=S (configuration not stated)	101.0	101.0	-21.2	0.1
O=C(NC1CCCC1)C1CCC(=O)N1Cc1ccc(F)cc1 (configuration not stated)	101.0	102.0	-13.6	-23.4
CC(C)C(N)c1cccs1 (configuration not stated)	102.0	102.0	-18.8	-1.1
O=S(=O)(Nc1cccc(Br)c1)c1cccs1	102.0	99.0	-12.3	2.4
CC1CCc2c(nc3ncnn3c2NCCc2ccccc2F)C1 (configuration not stated)	103.0	102.0	19.6	-4.0
O=C(NCc1n[nH]c(=S)n1-c1cccc(Cl)c1)c1ccccc1	103.0	103.0	-3.7	-0.2
CC1CC(C)CN(C(=O)c2cc(Nc3cccc(C(F)(F)F)c3)nc3ccccc23)C1 (configuration not stated)	103.0	107.0	8.3	132.3
CCN(CC)c1nc(N)nc(N(c2ccccc2)c2ccccc2)n1	104.0	95.0	-1.5	.
CCNC(=O)c1ccc(-c2nc3ccccc3s2)s1	103.0	107.0	-12.2	101.3
Nc1nc2cc(S(=O)(=O)N3CCCC3)ccc2o1	103.0	110.0	-21.2	9.1
O=C(CN1C(=O)/C(=C\c2ccccc2Br)Oc2ccccc21)NC1CC1	101.0	105.0	-10.0	52.1
CCCCN(CC)C(=O)c1cc2cc3ccc(C)cc3nc2o1	102.0	106.0	-20.1	7.7
CCCNS(=O)(=O)c1ccc(Cl)c(C(F)(F)F)c1	106.0	105.0	-25.1	-4.1
CN1/C(=C/C=N/n2cnnc2)C(C)(C)c2ccccc21	103.0	93.0	.	-0.5
Nc1ccc2nc(CN3CCOCC3)[nH]c2c1	100.0	102.0	29.6	87.3
O=C(Cn1c(C(=O)N2CCOCC2)cc2sccc21)c1ccccc1	100.0	100.0	-1.2	0.7
CCN1C(=O)C(=C2C=C(C)N(Cc3ccco3)C(C)=C2)C(=O)N(CC)C1=S	98.0	95.0	-34.5	24.8
CCOC(=O)Cc1n[nH]c(CC(=O)OCC)n1	103.0	103.0	6.6	.
CCc1[nH]c(=O)c(C#N)c2c1CCCC2	105.0	102.0	1.3	-166.5
CCOC(=O)c1cc(C)n(C)c1C	103.0	107.0	.	-8.9
CC(=O)N1c2ccc(S(=O)(=O)N3CCC(C(=O)NC4CCCC4)CC3)cc2CC1C (configuration not stated)	103.0	104.0	-13.7	-20.4
O=C(CCC1CCCC1)N1CCN(C(=O)Cc2ccccc2)CC1	100.0	100.0	16.6	3.0
CC(C)CCN1C(=O)c2ccc(C34CC5CC(CC(C5)C3)C4)cc2C1=O	105.0	100.0	4.8	13.9
COc1cc(C=NC2=NN(c3ccccc3)CC2)ccc1O	96.0	100.0	0.5	.
COc1ccc(S(=O)(=O)N2CCC(C(=O)Nc3c(F)cccc3F)CC2)cc1OC	104.0	103.0	-2.3	-0.2
CCOC(=O)c1c(C)oc2ccc(OCC)cc12	102.0	103.0	0.7	0.7
CCNC(=O)C1Cc2ccccc2CN1S(=O)(=O)c1ccc(F)cc1 (configuration not stated)	104.0	105.0	.	-10.8
Cc1onc(-c2ccccc2)c1C(=O)Nc1ccccc1	103.0	101.0	.	-11.6
CCOc1ccc(N2C(=O)Nc3ccccc3C2(O)C(=O)N2CCCC2)cc1 (configuration not stated)	102.0	103.0	10.3	2.1
Cc1cccc(OCCn2c(CNC(=O)c3ccccc3)nc3ccccc32)c1	102.0	97.0	-9.3	-2.1
CCOC(=O)Nc1ccc2c(CNC3CCCCC3)cc(=O)oc2c1	99.0	105.0	-7.3	58.8
COc1ccc2c(CC(=O)OCc3cc(=O)n4c5c(sc4n3)CCCC5)coc2c1	100.0	98.0	-22.0	-72.1
CCCCN1C(=O)/C(=C2/C(=O)N(C)c3ccccc32)SC1=S	100.0	103.0	1.1	-9.8
CCNc1ccc(S(=O)(=O)C(F)(F)F)cc1NC(=O)Cc1ccccc1	109.0	119.0	-5.3	3.7

Molecules from the list above with a cyano group (3):
SMILES	PV pol inh	PV pol inh intensity	MenB inh	MbtI inh
CCN(CC(=O)Nc1ccc(OC)cc1)C(=O)c1ccc(C#N)cc1	101.0	107.0	-7.8	-2.4
COc1ccccc1OCc1nc(C#N)c(N(C)C)o1	104.0	103.0	-8.9	9.1
CCc1[nH]c(=O)c(C#N)c2c1CCCC2	105.0	102.0	1.3	-166.5

Other structures:
SMILES	PV pol inh	PV pol inh intensity	MenB inh	MbtI inh
Cc1cc(NC(=O)c2cc(=O)c3ccccc3o2)n(-c2ccccc2C)n1	104.0	107.0	.	0.8
OC(CNCCc1ccc(F)cc1)c1ccccc1 (configuration not stated)	102.0	102.0	-14.8	28.9
CCC(Sc1nc2cc3c(cc2c(=O)n1Cc1ccco1)OCO3)C(=O)Nc1ccccc1OC (configuration not stated)	101.0	106.0	-10.1	-7.7
CN(C(=O)COC(=O)c1ccc2c(c1)OCCO2)c1ccccc1	103.0	106.0	-27.0	6.0
CSc1ncc(Cl)c(C(=O)Nc2cc(C)ccc2C)n1	102.0	105.0	-23.3	-10.9
CCn1c(-c2ccco2)nc2ccccc21	103.0	106.0	-5.9	110.6
NCCCCC(=O)O	104.0	104.0	-1.6	-12.4
O=C1CCNc2cc3ccccc3cc21	96.0	113.0	-35.1	74.2
CCOc1ccc(Nc2cc(C(=O)NCC(OC)OC)c3ccccc3n2)cc1	99.0	103.0	1.6	1.2
Cc1cc(C)nc(NS(=O)(=O)c2ccc(-n3c(Cn4ncc5ccccc5c4=O)n[nH]c3=S)cc2)n1	103.0	104.0	9.0	13.4
COc1ccccc1N=Cc1c(O)n(C)c(=O)c2ccccc12	100.0	104.0	.	-3.0
CNCc1cccnc1	103.0	108.0	14.1	-4.8

Whole records as entered above.
`COc1ccccc1N=Cc1c(O)n(C)c(=O)c2ccccc12` in the list: PV pol inh = 100.0; PV pol inh intensity = 104.0; MenB inh = .; MbtI inh = -3.0
`Cc1cc(NC(=O)c2cc(=O)c3ccccc3o2)n(-c2ccccc2C)n1` in the list: PV pol inh = 104.0; PV pol inh intensity = 107.0; MenB inh = .; MbtI inh = 0.8
